# Compound activity as filed in PubChem BioAssay.
# Vaccinia Venus: inhibitors of vaccinia virus (Venus reporter); 330,000 compounds, 0.46% hits; Vaccinia virus Venus reporter expression, fluorescence; AID 720580; Potency, µM (doses to about 36.5 µM), for inactives: at the highest dose activity change, negative = inhibition, usual class: inhibitors; active means well fitted inhibition curve with a large enough effect; inconclusive means small, poorly fitted or top-dose-only effect; inactive means no such curve, though single readings can be large or run the other way; tested in A549 cells; note: nearly all actives have a fitted effect of over 30% in size; inactives centre near -10
# Vaccinia mCherry: vaccinia inhibition (mCherry reporter); Potency, µM (doses to about 36.5 µM), for the others: at the top dose activity change, negative = inhibition, usual class: inhibitors; Vaccinia virus mCherry reporter infection, fluorescence; about a quarter of the inactives have no number; 310,000 compounds, 0.63% hits; active = well fitted inhibition curve with a large enough effect; inconclusive = small, poorly fitted or top-dose-only effect; inactive = no such curve, though single readings can be large or run the other way; tested in A549 cells; note: nearly all actives have a fitted effect of over 35% in size; inactives centre near -10
# * marks the source's active call; other numbers are inactive results; i = inactive; ? = inconclusive; nt = not tested or not shown; & = joins results of further samples; [ ] = remark or other dose. % is set by controls: 0 for no effect and ±100 for the full control effect; potency is the fitted concentration of half-maximal effect.
# Each structure is followed by: Vaccinia Venus | Vaccinia mCherry
> CC1=C(C(=O)OCC2CCCO2)C(c2ccccc2)C2=C(CCCC2=O)N1 (centres undefined)
 : -11% | i
> CC1OC2C(OC1C)N(S(C)(=O)=O)CCN2S(C)(=O)=O (centres undefined)
 : -17% | -9%
> Cc1ccc(S(=O)(=O)N(CC(=O)Nc2ccccc2-c2ccccc2)c2ccc(C)cc2C)cc1
 : -26% | ?
> COC(=O)Nc1ccc(S(=O)(=O)NCCCCCC(=O)O)cc1
 : 5% | 2%
> COc1ccc(-n2c(C)c(C)c3c(N)ncnc32)cc1
 : -12% | -25%
> Cc1ccc(Sc2ncccc2COC(=O)NC(C)C)cc1
 : -3% | -9%
> COCOc1ccc(-c2ncc(OC)nc2NC(=O)c2cc(C)oc2C)cc1
 : -1% | -12%
> CCCc1nc2cc(C)c(Br)c(C)n2c1Cc1ccsc1
 : -4% | -5%
> NC(=O)c1oc2ccc(Cl)cc2c1N
 : -4% | -8%
> Cc1cccc(N2C(=O)CSC23C(=O)N(CC(=O)Nc2cccc(Cl)c2)c2ccccc23)c1 (centres undefined)
 : ? | ?
> Cc1cc(C)c(NN=c2c(=O)c3ccccc3c2=O)c(C)c1
 : -4% | -23%
> CCc1ccccc1NC(=O)Nc1nnc(N(CC)c2ccccc2)s1
 : -23% | -21%
> CNc1ccc(/C=C/c2ccccc2)cc1
 : -21% | -25%
> COc1ccc(Cl)cc1NS(=O)(=O)c1cc(-c2cc(C)no2)ccc1C
 : -29% | -14%
> C[C@H](CO)N1C[C@H](C)[C@@H](CN(C)S(=O)(=O)c2ccc(Oc3ccccc3)cc2)OCc2cn(nn2)CCCC1=O
 : -14% | i
> CC1(C)CC(=O)C2=C(C1)Oc1ncn(CCCn3ccnc3)c(=N)c1C2c1ccccc1 (centres undefined)
 : -8% | i
> Cc1cc(C)n(CCc2nc3c4ccccc4nc(N4CCN(c5ccccc5)CC4)n3n2)n1
 : -5% | -20%
> Cc1nn(-c2ccccc2)c2c1C(c1cccnc1)N1C=C(S(=O)(=O)N3CCCCC3)C=CC1=N2 (centres undefined)
 : -11% | nt
> O=C(c1ccco1)N1CCN(S(=O)(=O)c2ccc(Cl)s2)CC1
 : -16% | 0%
> COCCCn1c(C)cc(C(=O)COC(=O)CCc2nc3ccccc3c(=O)[nH]2)c1C
 : -15% | 0%
> COc1ccc(/C=C2/SC(=O)N(CC(=O)NCCC(C)C)C2=O)cc1OC
 : 5% | i
> Cc1ccc(S(=O)(=O)CCC(=O)OCC(=O)N2CCN(S(=O)(=O)c3ccc(Cl)cc3)CC2)cc1
 : -16% | -15%
> O=S1(=O)CCOC[C@H](CC2CCCCC2)N1Cc1cccc(Cl)c1
 : -26%&-14% | ?
> CN(C(=O)C1=CC(c2ccc3c(c2)OCO3)=NS(=O)(=O)N1C)c1ccccc1
 : 7% | -2%
> N=c1n(CCN2CCCCC2)c2ccccc2n1CC(O)c1ccc(Cl)c(Cl)c1 (centres undefined)
 : 11µM* | ?
> CCOCC(=O)Nc1cc(Cl)ccc1C
 : -17% | -5%
> O=C(COc1ccccc1)Nc1ccc(S(=O)(=O)N2CCCC2)cc1
 : -3% | i
> COC(=O)C12CCC(C)(c3nc4ccccc4nc31)C2(C)C (centres undefined)
 : -1% | -12%
> CC1CCCCN1N=Nc1nc2c([nH]1)c(=O)n(C)c(=O)n2C (centres undefined)
 : 1% | i
> COc1ccccc1-c1cc2nc(-c3ccccc3)cc(N3CCN(C(=O)c4ccoc4)CC3)n2n1
 : ? | ?
> O=C(Nc1cccnc1Cl)c1ccc(Cl)c([N+](=O)[O-])c1
 : -16% | -26%
> CCC(=O)Oc1ccc(-c2nc3ccccc3c(=O)o2)cc1
 : -6% | -7%
> CC(CC(=O)Nc1ccc2c(c1)c(=O)n(C)n2-c1ccccc1F)c1ccccc1 (centres undefined)
 : -17% | 4%
> Cc1cc(C(F)(F)F)nn1-c1nc(-c2ccccc2)cc(C(F)(F)F)n1
 : -12% | -14%
> CN(C)C(CNC(=O)c1oc2ccccc2c1CSc1ncn[nH]1)c1ccco1 (centres undefined)
 : -2% | -6%
> CCOc1ccc(CNC(=O)Cn2nc(C)n3cccc3c2=O)cc1
 : 0% | -18%
> COc1ccc(/C=C2\CCc3ccccc3C2=O)c(OC)c1OC
 : -19% | -5%
> CC1(C)OC(=O)C2=C(C[C@@H](CCc3ccccc3)O[C@H]2CCc2cccc(Cl)c2)O1
 : -6% | -1%
> CCc1ccc(NC(=O)c2cccc(N3CCCS3(=O)=O)c2)cc1
 : -18% | -15%
> CC1CN(C(=O)CCNC(=O)c2ccc(Br)cc2)CC(C)O1 (centres undefined)
 : -8% | i

# Retrieved one by one from above, 2 records:
# Each structure is followed by: Vaccinia Venus | Vaccinia mCherry
> CCc1ccc(NC(=O)c2cccc(N3CCCS3(=O)=O)c2)cc1
 : -18% | -15%
> CC(CC(=O)Nc1ccc2c(c1)c(=O)n(C)n2-c1ccccc1F)c1ccccc1 (centres undefined)
 : -17% | 4%

# New compounds follow
# Each structure is followed by: Vaccinia Venus | Vaccinia mCherry
> CCOc1ccc(CCNC(=O)Cn2ncn3nc(-c4ccc(OC)cc4)cc3c2=O)cc1
 : -6% | 25%
> Cc1ccc(NC(=S)N(CCN2CCOCC2)Cc2ccccc2F)cc1
 : -8% | i
> CC(=O)Nc1ccc(NC(=O)c2cc(-c3cc(C)c(C)cc3O)n[nH]2)cc1
 : 4% | 8%
> COc1cccc(NC(=O)CSc2nc(N)cc(N)n2)c1
 : -2% | -1%
> CC(C)CN(CC(C)C)S(=O)(=O)N1CCC(C(=O)NCc2ccccn2)CC1
 : -3% | -18%
> O=C(NNC1=NCCCCC1)Nc1cccc(Cl)c1
 : -2% | -23%
> CC(=O)Nc1sc(N/N=C/c2ccccc2)nc1-c1ccc(C)cc1
 : -16% | -25%
> C=CCn1c(N)cc(=O)nc1SCC(=O)Nc1ccccc1C(N)=O
 : 4% | -12%
> CC(C)(C)NC(=O)/C=N/O
 : -12% | i
> CCOC(=O)c1c(NC(=O)C2CCCN(S(=O)(=O)c3ccc(C)cc3)C2)sc2c1CCCC2 (centres undefined)
 : -6% | -14%
> CC1CCN(CC(=O)NNC(=O)c2cccc(Br)c2)CC1
 : -3% | -24%
> O=C1COc2ccc(C(=O)COC(=O)COc3ccccc3[N+](=O)[O-])cc2N1
 : -15% | -3%
> CC1(C)CC(=O)C(C=NCCN2CCNC2=O)=C(O)C1
 : 0% | -7%
> COc1c(NC(C)=O)c2ccccc2c2ccccc12
 : -8% | -19%
> COc1ccc(S(=O)(=O)N2CCN(Cc3nc4ccc(C)cc4o3)CC2)cc1OC
 : 1% | -6%
> Cn1c(=NC(=O)C2CCN(S(=O)(=O)c3cccs3)CC2)sc2ccccc21
 : 0% | -11%
> Cc1ccc(NC(=O)CN2C(=O)CN=C(c3ccccc3)c3ccccc32)cc1Cl
 : -3% | -4%
> Cn1c(SCC(=O)Nc2ccc3nc(SCC(=O)NC4CC4)sc3c2)nnc1-c1ccccc1
 : -15% | -19%
> CCOC(=O)c1ccc(NC(=O)c2ccc3c(c2)NC(=O)c2ccccc2S3)cc1
 : 6% | -6%
> O=C(O)C1=C[C@H](c2coc3ccccc3c2=O)C[C@H](OCc2ccc(CO)cc2)O1
 : -19% | -7%
> Cc1ccc([N+](=O)[O-])cc1NC(=S)NC(=O)c1cccs1
 : -9% | -15%
> COc1cc(CN2CCCC(C)C2)ccc1OCc1ccccc1 (centres undefined)
 : -13% | i
> CC(c1ccccc1F)n1cc(C(=O)NCc2ccncc2)nn1 (centres undefined)
 : 1% | -5%
> C[C@H]1CN(S(=O)C(C)(C)C)[C@@H](CCO)/C1=C\CCO (some centres undefined)
 : -7% | -14%
> CC1=NN(c2ccc(C(=O)O)c(N)c2)C(=O)C1
 : -15% | i
> Cc1cc(NC(=O)CCC(=O)N(Cc2ccccc2)C(C(=O)NC2CCCC2)c2ccc(C)o2)no1 (centres undefined)
 : -8% | -10%
> O=C(CSc1ccc2ccccc2n1)Nc1ccc(N2CCOCC2)cc1
 : -10% | -20%
> Nc1nc2ncccn2c1-c1ccc(C(F)(F)F)cc1
 : 0% | ?
> Nc1ccc(C(=O)OCc2nc3cc4ccccc4cc3[nH]2)cc1
 : 32%[activator] | 5µM*
> O=C(C[C@H]1C[C@H](C(=O)N2CCCCC2)[C@@]2(CCc3ccccc3)c3[nH]c4ccc(Cl)cc4c3CCN2C1=O)NCCN1CCOCC1
 : -7% | i
> COc1ccccc1CCNC(=O)C(=O)NCC1OCCN1S(=O)(=O)c1ccc(OC)c(OC)c1 (centres undefined)
 : -15% | -3%
> O=C(N[C@@H]1c2ccccc2C2(CCN(Cc3c(O)ccc4ccccc34)CC2)[C@H]1O)c1ccccc1
 : 0% | -6%
> CCOC(=O)c1noc2nc(C)n(CC(=O)NC(C)CC)c(=O)c12 (centres undefined)
 : -5%[7.34 µM] | -8%
> O=C(NCCc1nc(-c2ccccc2)no1)c1ccccc1
 : -9% | 3%
> COc1ccc(S(=O)(=O)NCc2ccco2)c2ccccc12
 : -10% | -6%
> O=C(NCc1ccco1)C(=O)NCC1OCCN1S(=O)(=O)c1ccc(Br)cc1 (centres undefined)
 : 2% | i
> CC(C)NC(=O)Cn1ncn2c(cc3cc(F)ccc32)c1=O
 : 6% | -1%
> O=C(NCc1ccccn1)c1cccc(S(=O)(=O)Nc2ccc(F)cc2)c1
 : -5% | i
> O=C(Cn1cnc2c(nnn2Cc2ccc(F)cc2)c1=O)NC1CCCC1
 : -15% | i
> Cc1cc(N/N=C/c2cccc(Cl)c2)nc(-n2nc(C)cc2C)n1
 : ? | ?

# Next part; the last two above are carried over.
# Each structure is followed by: Vaccinia Venus | Vaccinia mCherry
> O=C(Cn1cnc2c(nnn2Cc2ccc(F)cc2)c1=O)NC1CCCC1
 : -15% | i
> Cc1cc(N/N=C/c2cccc(Cl)c2)nc(-n2nc(C)cc2C)n1
 : ? | ?
> O=C(c1ncn2c1c(=O)[nH]c1ccccc12)N1CCc2ccccc2C1
 : -2% | -8%
> Cc1ccc(C(=O)NCCSCc2ccc(Cl)cc2Cl)cc1[N+](=O)[O-]
 : -11% | -7%
> O=C(Nc1cc(C(F)(F)F)ccc1-n1cncn1)C1CC1
 : -4% | i
> CCOc1ccccc1NC(=O)CCc1nnc2ccc(N3CCC4(CC3)OCCO4)nn12
 : -14% | i
> O=S(=O)(c1ccc(-c2csc(-c3cccnc3)n2)cc1)N1CCOCC1
 : -15% | -5%
> CC1(C(=O)NCc2cccs2)CCN1C(=O)Cc1cccc2ccccc12 (centres undefined)
 : -5% | -15%
> CCN1CCN(CC(=O)Nc2ccc(C)cc2C)C(=O)C1=O
 : -2% | i
> COc1ccc(CCNC(=O)CSc2nc(C)nc3c2oc2ccccc23)cc1OC
 : -6% | nt
> CCOC(=O)C1CCN(C(=O)CC2(CC(=O)O)CCCC2)CC1
 : -3% | 20%
> O=C(NC1CCN(S(=O)(=O)c2cccc([N+](=O)[O-])c2)CC1)C1CCCCC1
 : -4% | -2%

# Complete entries, quoted from the list. Values in the order: Vaccinia Venus, Vaccinia mCherry
# CC1(C(=O)NCc2cccs2)CCN1C(=O)Cc1cccc2ccccc12 (centres undefined) as listed: -5%, -15%
# COc1ccc(CCNC(=O)CSc2nc(C)nc3c2oc2ccccc23)cc1OC as listed: -6%, nt
# Cc1ccc(C(=O)NCCSCc2ccc(Cl)cc2Cl)cc1[N+](=O)[O-] as listed: -11%, -7%
# CCOc1ccccc1NC(=O)CCc1nnc2ccc(N3CCC4(CC3)OCCO4)nn12 as listed: -14%, i
# O=C(NC1CCN(S(=O)(=O)c2cccc([N+](=O)[O-])c2)CC1)C1CCCCC1 as listed: -4%, -2%

# More records:
# Each structure is followed by: Vaccinia Venus | Vaccinia mCherry
> CC(=O)C(Sc1ccc2nnc(-c3ccncc3)n2n1)C(C)=O
 : -11% | 5%
> Cc1ccc(OCC(=O)N2CCN(c3ccc([N+](=O)[O-])c(N4CCOCC4)c3)CC2)cc1
 : -6% | -15%
> COc1ccccc1NC(=O)c1ccc(C(=O)c2ccccc2)o1
 : 3% | -3%
> CCCCNC(=S)Nc1cccc(S(=O)(=O)NC2=NCCC2)c1
 : -11% | -9%
> C=CCN(c1ccccc1)S(=O)(=O)c1cccc(C(=O)Nc2nnc(SCC)s2)c1
 : -14% | -13%
> O=C(NN=Cc1ccccc1O)C(O)c1ccccc1 (centres undefined)
 : -26% | ?
> CC(=O)Nc1ccc(NC(=O)c2c(C)nn(-c3ccccc3)c2Cl)cc1C
 : -4% | -8%
> COc1cc(NC(=O)c2ccc(-c3cccnc3)c3ccoc23)cc(OC)c1OC
 : -20% | -24%
> Cc1oc2ccc(OCC(N)=O)cc2c1C(=O)OC(C)C
 : -30% | ?
> COc1ccc(NC(=O)Cn2cnc3c(cnn3-c3ccc(C)c(C)c3)c2=O)c(OC)c1
 : -3% | nt
> CCOC(=O)C[C@H]1c2ccccc2S(=O)(=O)N1Cc1cc(OC)c(OC)c(OC)c1
 : -12%&-13% | -13%
> COCCNC(=O)C1(C)CCCN(C(=O)c2ccco2)C1 (centres undefined)
 : -5% | 6%
> C#CCOCCOCCOCCNc1nc(N2CCOCC2)nc(N2CCN(C(=O)[C@H](CCCCN)n3cc(CN)nn3)CC2)n1
 : -4% | i
> CCOc1ccc(CC(=O)NNC(=S)NC)cc1
 : -7% | i
> C=C(C)[C@@H]1[C@H]2OC(=O)[C@H]1[C@]1(O)C[C@H]3O[C@]34C(=O)O[C@H]2[C@]14C
 : -10% | i
> CCC(=O)Nc1ccc(Cl)c(NC(=S)NC(=O)COc2ccc(Cl)cc2)c1
 : -19% | i
> O=C(NCC1COCCO1)c1cc(COc2c(F)cccc2F)on1 (centres undefined)
 : -22% | -4%
> COc1cccc(COC(=O)c2ccc3c(c2)NC(=O)C(C)S3)c1OC (centres undefined)
 : -26% | -24%
